High-throughput results deposited in PubChem BioAssay by several laboratories.
Proteasome disasm = blocks ATP-dependent breakdown of the yeast 26S proteasome; anti-FLAG beads, GFP-proteasome disassembly, flow cytometry; inhibition of disassembly, % (test concentration not listed); 0.2% of 24,000 active;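 active means above 40%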;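 further: plate controls were ATP control with full disassembly for no effect and ATP-gamma-S intact proteasomes for full effect; higher percent means more bead fluorescence retained so stronger block of disassembly; stock transfer was 100 nL into about 10 µL; wells with too few beads may also be inconclusive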
VCAM-1 up = enhancers of VCAM-1 display on endothelial cells, cell-based, plate reader, pooled HUVEC, TNFa stimulus (AID 455); HUVEC TNFa-induced VCAM-1 immunofluorescence, plate reader; numbers were filed only for top-ranked candidate wells; augmentation, % at 5 µM; 0.2% of 10,000 active;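 active means a compound raising TNF-alpha-driven VCAM-1 surface staining, with its hit status upheld on visual or statistical review; inactive means the rest, including hits rejected on review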;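 further: 0% = TNFa with vehicle and 100% = strongest image-checked hit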
* hit, by the source's call; i = inactive; / = no result given. The list is partial, so the mix of outcomes need not match the whole.

SMILES | Proteasome disasm | VCAM-1 up
Nc1ccc(-c2ccc(N)cc2C(F)(F)F)c(C(F)(F)F)c1 | -0.1 | i
Cc1cccn2c(=O)c3cc(C(=O)NC(C)c4ccccc4)c(=N)n(CCCn4ccnc4)c3nc12 (stereo not given) | -1.5 | /
CC1(C)CC(=O)C2=C(C1)NC(=O)CC2c1ccc(N(CCC#N)CCC#N)cc1 (stereo not given) | 0.3 | i
COc1ccc(-n2c(Cc3cccn3C)nnc2SCC(=O)NC2CCCCC2)cc1 | 1.2 | /
CC(=O)Nc1nc2ccc(Br)cc2s1 | -0.6 | /
O=C(NCCc1ccccc1)c1cc(-c2ccco2)on1 | 2.9 | i
Cc1ccc(C)c(-c2nc3cc(N)ccc3o2)c1 | 0.6 | i
CCOCCCNC(=O)c1cn(C)c2ccc(S(=O)(=O)N(C)C3CCCCC3)cc2c1=O | -0.6 | /
Brc1ccc2[nH]c3nc(SCCN4CCOCC4)nnc3c2c1 | -0.4 | i
CCOc1cc(-c2cc(N)n[nH]2)cc(OCC)c1OCC | -3.4 | /
O=C(CC1CCS(=O)(=O)C1)Nc1ccc[nH]c1=O (stereo not given) | -0.5 | i
O=C(c1noc2c1CCCC2)N1CCOCC1 | -1.2 | /
C=CCc1ccccc1OCC(O)CNC(C)C (stereo not given) | -1.7 | i
CC(C)(C)c1ccccc1NC(=O)c1cccnc1 | 1.3 | i
Cc1cc(NC(=O)Nc2cc(C)nn2-c2ccccc2)n(-c2ccccc2)n1 | -3.5 | /
C#CC(C)(CC)NC(=O)Cn1nnc(-c2ccc(S(C)(=O)=O)cc2)n1 (stereo not given) | 0.0 | /
O=C(NCc1cccs1)C1CCN(S(=O)(=O)c2cccs2)CC1 | -0.9 | i
CC(C)NC(=O)c1cc(-c2ccc(Br)cc2)on1 | 0.3 | /
Cc1cc(C)n(S(=O)(=O)c2cc(C(=O)O)c(Cl)cc2Cl)n1 | -0.8 | i
Cc1ccc(-c2nc3cnccn3c2Nc2ccc3c(c2)OCO3)o1 | 2.4 | i
COc1ccc(C2C(=O)N(C3CCCCC3)CC(=O)N2Cc2ccco2)cc1 (stereo not given) | -0.5 | i
Cc1c(NC(=O)C(C)OC(=O)COc2cccc3c2OC(C)(C)C3)c(=O)n(-c2ccccc2)n1C (stereo not given) | 0.9 | i
Cc1onc(-c2ccccc2Cl)c1C(=O)NCC(=O)O | 0.6 | /
CCc1ccccc1NC(=O)C(C#N)Cc1cccnc1 (stereo not given) | -0.9 | i
COCCNC(=O)Nc1ccc2c(c1)N(C)C(=O)CS2 | 0.1 | /

Some of the entries so far, with two lines to a compound:
The line under a structure holds: Proteasome disasm	VCAM-1 up
- C#CC(C)(CC)NC(=O)Cn1nnc(-c2ccc(S(C)(=O)=O)cc2)n1 (stereo not given)
  0.0	/
- O=C(NCc1cccs1)C1CCN(S(=O)(=O)c2cccs2)CC1
  -0.9	i
- Brc1ccc2[nH]c3nc(SCCN4CCOCC4)nnc3c2c1
  -0.4	i
- O=C(CC1CCS(=O)(=O)C1)Nc1ccc[nH]c1=O (stereo not given)
  -0.5	i
- CC(=O)Nc1nc2ccc(Br)cc2s1
  -0.6	/
- COc1ccc(-n2c(Cc3cccn3C)nnc2SCC(=O)NC2CCCCC2)cc1
  1.2	/
- Nc1ccc(-c2ccc(N)cc2C(F)(F)F)c(C(F)(F)F)c1
  -0.1	i

Continued:
SMILES | Proteasome disasm | VCAM-1 up
CN(c1ccccc1C(=O)NCC1CCCO1)S(C)(=O)=O (stereo not given) | 3.0 | i
O=C(NCN1C(=O)C2C3C=CC(C3)C2C1=O)Nc1ccccn1 (stereo not given) | 0.3 | /
CC1CC(C)CN(C(=O)CSc2nnc(-c3ccc(Cl)s3)o2)C1 (stereo not given) | -1.7 | /
FC(F)(F)c1nc(N2CCN(c3ccccc3)CC2)nc2c1CCCCC2 | 7.9 | /
N#Cc1ccccc1Cn1c(=O)n(-c2ccc(CC(=O)NCc3ccco3)cc2)c(=O)c2sccc21 | -1.5 | /
CCOC(=O)N1CCN(C(=O)CSCC(=O)Nc2nc(-c3ccccc3)cs2)CC1 | -1.6 | /
Cc1cc(=O)oc2c1ccc1oc(/C(=N/O)c3ccccc3)c(C)c12 | 0.3 | i
C=CCc1ccc(OCCCCCN2CCOCC2)c(OC)c1 | 3.1 | /
O=C(CCN1CCN(CC(=O)Nc2ccccc2F)CC1)Nc1ccccc1F | 1.3 | /
Cn1c(=O)n(Cc2ccc(Cl)cc2)c(=O)c2c1nc1n2CCN1Cc1ccco1 | -0.6 | /
COc1ccc(CCNS(=O)(=O)c2ccc3c(c2)CC(C)N3C(C)=O)cc1OC (stereo not given) | -0.8 | /
O=C1[C@@H]2C(c3ccccc3Cl)=NO[C@@H]2C(=O)N1Cc1ccccc1 | -0.7 | i
CC(C)(C)NS(=O)(=O)c1cccc(S(=O)(=O)c2cccc(S(=O)(=O)NC(C)(C)C)c2)c1 | 2.0 | /
CCC(CC)C(=O)NCc1ccc2c(c1)cc(C)n2C | 1.0 | /
Cc1cc(C(=O)Nc2sc3c(c2C#N)CCC(C(C)(C)C)C3)no1 (stereo not given) | -2.1 | /
O=C(c1cc(-c2cccs2)on1)N1CCN(c2ccccc2)CC1 | -0.3 | /
COC(=O)C1=C(C)OC(N)=C(C#N)C1c1c(C)nn(-c2ccccc2)c1Cl (stereo not given) | -0.6 | i
CCC(COC(=O)Nc1cccc(C)c1)NC(=O)OCC(C)C (stereo not given) | 0.3 | /
CC(=O)N1CN(CCCn2ccnc2)Cc2c1sc1c2CCCC1 | -1.5 | /
CCCCN1C2=NCCCN2c2cc(C)c(C)cc21 | -1.3 | /
COc1cc2c(cc1OC)C(c1cc(OC)c(OC)c(OC)c1)NCC2 (stereo not given) | -0.1 | i
CC(C)CNC(=O)c1c(N)n(/N=C/c2ccccn2)c2nc3ccccc3nc12 | -0.2 | i
CCCCCCn1c(CN2CCCC(C)C2)nc2c1c(=O)n(C)c(=O)n2C (stereo not given) | -1.0 | i
COc1ccccc1CNC(=O)CCNC(=O)Cn1cnc2ccccc2c1=O | -0.2 | /
COc1cc(/C=N/n2c(C)nnc2C)cc(OC)c1OC | -1.3 | i

Carrying on:
SMILES | Proteasome disasm | VCAM-1 up
COc1cc(OC)c(C2C(C#N)=C(N)OC3=C2C(=O)CC(C)(C)C3)cc1OC (stereo not given) | -2.3 | i
Cc1c(C(=O)Nc2cnccn2)oc2ccccc12 | 2.4 | i
O=C(NCCN1CCCCC1)c1ccc(=O)oc1 | -0.4 | i
CCOc1ccc(S(=O)(=O)N2CCN(c3ccc(OC)cc3)CC2)c2cccnc12 | 0.8 | /
CC(=O)N1CCc2cc(S(=O)(=O)NCCC(=O)N3CCN(Cc4ccccc4)CC3)ccc21 | -0.9 | /
CCOC(=O)c1nnc(-c2ccccc2)o1 | -2.0 | i
Cc1cccc2cc(=O)[nH]c(C)c12 | -0.3 | /
O=C(Nc1cccnc1)c1cnc2ccccc2n1 | -2.3 | /
Oc1ccccc1-c1nnc(COc2ccc(Cl)cc2Cl)o1 | -0.8 | i
CC(=O)c1cccc(NC(=O)N2CCCC2C(=O)NCc2ccc(C)cc2)c1 (stereo not given) | 1.0 | i
CCSc1nc2ccccc2n1CC(N)=O | -0.1 | i
CC(C)CC(NC(=O)C1CCC(C)CC1)C(=O)Nc1cccnc1 (stereo not given) | -3.4 | /
CCOC(=O)c1c(C)[nH]c(C)c1-c1ccccc1OC | -0.8 | /
Cn1cccc1Cc1nnc(SCC(=O)N2CCN(c3ccccc3)CC2)n1-c1ccc(F)cc1 | 0.2 | /
Cc1nnc(SCC(=O)NCCN2C(=O)CSC2=O)s1 | -2.1 | i
CC1CCCCN1CCNC(=O)C1CCN(S(=O)(=O)N2CCCCC2)CC1 (stereo not given) | -3.5 | /
CCC(=O)N1CCc2cc(S(=O)(=O)CCC(=O)O)ccc21 | -1.6 | /
COc1ccccc1N1CCN(c2cc(=O)n(-c3ccccc3Cl)c(=O)[nH]2)CC1 | -0.5 | /
CCC(CC)c1nc(NCCC(=O)O)c2ccccc2n1 | -1.5 | /
O=C(CCS(=O)(=O)Cc1ccccc1F)NCCCN1CCCCC1 | -3.7 | /
Cc1cccc(N(C)S(=O)(=O)c2ccc3c(c2)CCC(=O)N3)c1 | -4.8 | /
CC(=O)c1ccccc1NS(=O)(=O)c1c(C)nn(-c2ccccc2)c1C | -1.9 | i
CCN(CC)C(=O)CSc1nnc([C@@H](N)Cc2ccccc2)o1 | 1.8 | i
O=C(Nc1cccnc1)c1ccc2c(c1)C(=O)N(Cc1cccnc1)C2=O | -0.9 | i
CC(C)C(=O)Nc1ccc(-c2nc3cccnc3o2)cc1 | 0.1 | i

Additional structures follow:
SMILES | Proteasome disasm | VCAM-1 up
COc1nc(Nc2ccc3c(c2)OCO3)nc(OC)n1 | 0.5 | /
Cc1cc(NC(=O)CSc2nc3ccsc3c(=O)n2NC(=O)c2ccccc2)no1 | -1.4 | i
CC1CCCCN1S(=O)(=O)c1ccc2c(c1)CCN2C(=O)C1CCC1 (stereo not given) | -0.8 | /
O=C(Cn1c(=O)oc2cc(S(=O)(=O)N3CCCCCC3)ccc21)NC1CCCCCCC1 | -0.4 | /
O=C(NCCc1ccccc1)C1CCN(S(=O)(=O)N2CCC3(CC2)OCCO3)CC1 | -1.0 | i
O=C(c1cc(-c2ccc(O)cc2)on1)N1CCCc2ccccc21 | 0.7 | /
Cc1cccc(N2C(=O)CC(Sc3nc(C)c4c(n3)CCCC4)C2=O)c1 (stereo not given) | 0.0 | i
COc1ccccc1C1C(C(C)=O)=C(O)C(=O)N1CCc1ccccc1 (stereo not given) | -0.6 | i
CCN1CCN(c2nc(-c3cccnc3)nc3ccccc23)CC1 | 2.7 | i
CCC(=O)N1CCCc2cc(S(=O)(=O)N3CCC(N4CCCCC4)CC3)ccc21 | -2.0 | /
Cn1c(=O)oc2cc(S(=O)(=O)NC3CCCc4ccccc43)ccc21 (stereo not given) | -0.3 | /
CN(Cc1ccccc1)c1nnc(N)s1 | 0.2 | /
Cc1ccccc1-c1nc(CN2CCC(C(=O)NCC3CCCO3)CC2)c(C)o1 (stereo not given) | -1.0 | /
CCOc1ccc(CCNC(=O)C2CCCN(c3nnc(-n4cccc4)s3)C2)cc1OCC (stereo not given) | -2.5 | /
Cc1ccc(C)c(-n2c(Cc3cc(=O)[nH]c(=O)[nH]3)nnc2SC(C)C)c1 | 2.7 | /
C/C(=N\O)C(C)/[N+]([O-])=C/c1nc(C)c(C)n1O (stereo not given) | 0.6 | i
CCC(=O)N(Cc1cc2c(C)ccc(C)c2[nH]c1=O)C1CCCCC1 | -1.5 | i
CC(=O)Nc1ccc(S(=O)(=O)NC(CC(=O)NCCC2=CCCCC2)C(C)C)cc1 (stereo not given) | 2.3 | /
COc1ccc(-c2nc3n(n2)C(c2cccnc2)C(C(N)=O)=C(C)N3)cc1 (stereo not given) | 2.5 | /
CCOC(=O)N1CCN(C(=O)CSCC(=O)Nc2nc(-c3ccc(Cl)s3)cs2)CC1 | -1.1 | /
CCOC(=O)C1=C(C)N=C2SC(CC)C(=O)N2C1c1ccc(OC(C)=O)c(OCC)c1 (stereo not given) | -2.9 | /
Cc1noc(/C=C/c2ccco2)c1S(=O)(=O)N1CCC(C(=O)N(C)Cc2ccccc2)CC1 | 46* | /
Clc1ccc(OCCCn2cncn2)cc1Cl | -1.0 | i
Cc1ccccc1-n1nc2c(c1NC(=O)c1ccc(S(=O)(=O)N(C)C)cc1)CSC2 | -0.5 | /
O=C(CC1NC(=O)NC1=O)NC1(C(=O)NC2CCCCC2)CCCCC1 (stereo not given) | 0.8 | /

Other compounds:
SMILES | Proteasome disasm | VCAM-1 up
Cc1ccc2oc(=O)c3cnn(CC(=O)NCCN4CCOCC4)c3c2c1 | 1.6 | /
O=S(=O)(c1ccc(-c2csc(-c3cccnc3)n2)cc1)N1CCCCC1 | -0.2 | i
Cc1nc2ncnn2c(C)c1CCC(=O)Nc1csc(N)n1 | -0.8 | /
COc1ccc(-c2c(=O)n(OCc3ccccn3)c3ccccc3[n+]2[O-])cc1OC | 0.0 | i
CCOC(=O)c1c(C)c(C(=O)NC(C)COC)c(C)n1C (stereo not given) | -4.5 | /
COc1ccc(-n2nc3c(c2NC(=O)c2c(-c4ccccc4Cl)noc2C)CS(=O)(=O)C3)cc1 | 0.8 | /
Cc1cc(S(=O)(=O)N2CCN(c3ccccc3C)CC2)ccc1F | 0.3 | i
Cc1ccc(S(=O)(=O)N2CCOCC2)cc1C(=O)Nc1ccc(-c2cn3ccsc3n2)cc1 | 1.3 | i
CCOC(=O)Cn1c(N2CCOCC2)nc2c1c(=O)[nH]c(=O)n2C | 0.1 | i
O=C1c2ccccc2-c2ccc(C(=O)N3CCOCC3)cc21 | 3.3 | i
Cc1ccc(-n2cc(C(C)(C)C)[nH]c2=S)cc1 | 0.8 | /
Nc1nnc(-c2ccccc2)c(-c2ccccc2)n1 | -0.6 | i
Cc1cc(-c2ccccc2)n2ncc(C#N)c2n1 | -1.0 | /
Cc1ccc(C(=O)CSc2nnc(-c3cccs3)n2C)o1 | 1.6 | /
Cc1c(NC2=NC3(CCCCC3)Cc3ccccc32)c(=O)n(-c2ccccc2)n1C | 1.4 | i
CCOC(=O)N1CCN(C(=O)CSCC(=O)Nc2nc(-c3ccc4c(c3)OCO4)cs2)CC1 | -2.8 | /
CCOC(=O)N1CCN(C(=O)c2ccc3c(=O)n4c(nc3c2)CCCCC4)CC1 | -0.1 | /

Single records (already shown):
CCOC(=O)N1CCN(C(=O)c2ccc3c(=O)n4c(nc3c2)CCCCC4)CC1 across the screens: Proteasome disasm: -0.1; VCAM-1 up: /
Cc1cc(-c2ccccc2)n2ncc(C#N)c2n1 across the screens: Proteasome disasm: -1.0; VCAM-1 up: /
